Screening data deposited in PubChem by Johns Hopkins Ion Channel Center.
KCNQ2 enhance: enhances the rat KCNQ2 potassium channel. O88943. CHO-K1 KCNQ2, FluxOR thallium flux fluorescence; hits give high values. B-score at 10 µM. 310,000 tested, 0.54% active. AID 2239;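 active means fluorescence ratio B-score at least 3 SD of library B-scores, with initial fluorescence B-score within 3 SD, cut at about 5.3 in these data; same plate scores as AID 2156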;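 further: B-score of peak minus minimum over baseline fluorescence ratio after K+ and Tl+ stimulus; positive B-score means potentiation of KCNQ2 with more thallium influx and brighter signal; only the inactives scoring about 0 or higher are listed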
Target sequence (O88943 whole entry, looked up): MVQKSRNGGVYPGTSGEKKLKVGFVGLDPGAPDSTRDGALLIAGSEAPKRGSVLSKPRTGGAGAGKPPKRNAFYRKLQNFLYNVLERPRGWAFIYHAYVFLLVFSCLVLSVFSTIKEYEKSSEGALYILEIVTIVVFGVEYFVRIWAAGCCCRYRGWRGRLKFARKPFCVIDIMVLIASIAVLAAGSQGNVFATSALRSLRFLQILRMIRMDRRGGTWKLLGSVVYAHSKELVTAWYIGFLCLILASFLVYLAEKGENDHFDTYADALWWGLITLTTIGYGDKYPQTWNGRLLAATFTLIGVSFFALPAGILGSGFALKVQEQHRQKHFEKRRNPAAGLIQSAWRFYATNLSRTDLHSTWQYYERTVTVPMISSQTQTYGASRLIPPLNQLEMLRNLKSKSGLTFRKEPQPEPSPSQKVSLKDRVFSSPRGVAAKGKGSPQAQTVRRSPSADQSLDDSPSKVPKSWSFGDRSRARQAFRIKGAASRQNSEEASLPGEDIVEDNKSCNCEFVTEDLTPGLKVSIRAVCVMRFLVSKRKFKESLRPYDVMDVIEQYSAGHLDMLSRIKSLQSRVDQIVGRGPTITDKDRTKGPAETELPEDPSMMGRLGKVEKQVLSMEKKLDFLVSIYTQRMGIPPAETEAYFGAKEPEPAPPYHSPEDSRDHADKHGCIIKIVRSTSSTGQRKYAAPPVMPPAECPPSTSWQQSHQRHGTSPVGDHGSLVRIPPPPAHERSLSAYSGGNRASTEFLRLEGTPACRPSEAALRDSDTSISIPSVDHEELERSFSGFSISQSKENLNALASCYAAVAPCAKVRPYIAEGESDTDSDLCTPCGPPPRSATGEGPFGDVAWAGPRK
KCNQ2 enhance baseline: also measured in KCNQ2 enhance; calls as there; B-score; compound at 10 µM; measured here: initial fluorescence intensity artifact check;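 brightness before thallium and not channel activity; 0 = typical well and far values either way flag optical interference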
Starred values were filed as active, the others as inactive. Some of the compounds tested. The share of hits here may be higher or lower than overall.

KCNQ2 enhance baseline	KCNQ2 enhance	molecule
0.46	0.18	COc1ccc(C2=NN(c3ccc(C(=O)O)cc3)C(c3ccc(OC)c(OC)c3)C2)cc1 (centres undefined)
0.14	0.28	Cc1ccc(C)c(NC(=O)CCN2C(=O)[C@@H]3Cc4ccccc4CN3C2=O)c1
-0.53	0.29	CCCCC1CCC(C(=O)N(CCCC)c2c(N)n(CCCC)c(=O)[nH]c2=O)CC1 (centres undefined)
1.4	0.07	CCCc1cc2nnc(SCC(=O)N(C)C3CCCCC3)n2c(N)n1
-0.06	0.17	O=C(Nc1ccc2c(c1)CCC2)c1c(F)cccc1Cl
-1.3	0.42	COc1ccc(-n2nc3c(c2NC(=O)c2ccc(S(=O)(=O)N4CCOCC4)cc2)CS(=O)(=O)C3)cc1
0.3	1.2	N#Cc1nc(-c2ccccc2Cl)oc1NCc1ccco1
2.6	0.53	Cc1cc(N2CCN(C)CC2)nc(N2CCOCC2)n1
1.3	0.88	COC(=O)c1ccc(CC(=O)c2c(C)cc(O)cc2O)o1
0.2	0.27	CCOC(=O)N1CCN(C(c2ccccc2)c2sc3nc(C)nn3c2O)CC1 (centres undefined)
-0.13	0.46	O=S(=O)(Nc1ccc(Cc2ccncc2)cc1)c1ccc(Cl)c(Cl)c1
1.3	2.1	Cc1ccc(S(=O)(=O)Nc2cccc(C(=O)NCC3CCCO3)c2)cc1F (centres undefined)
-0.32	1.7	CN(C)CCCNC(=O)CCC1CCCCC1
0.36	1.1	COc1ccc(N(C(=O)c2ccco2)C(C(=O)NC2CCCC2)c2cc(OC)c(OC)c(OC)c2)cc1 (centres undefined)
1.4	1	CCn1c(=O)c2ccccc2n2c(SCC(=O)N3CCc4ccccc4C3)nnc12
-0.37	2.3	Cc1ccc(/C=C/C(=O)OCC(=O)N2CC(=O)Nc3ccccc32)o1
-0.88	0.55	COc1ccc(C(=O)n2cc(C(=O)c3cc(C)ccc3O)cn2)cc1
-0.43	0.09	CC(C)CC(CO)N1CCN(C(=O)c2cccc(C(F)(F)F)c2)CCC1=O (centres undefined)
-0.87	1.4	CN(C)C(=O)C(OC(=O)c1ccc2c(c1)CCCC2)c1ccccc1 (centres undefined)
-0.17	0.05	COc1ccc(NS(=O)(=O)c2ccc3oc(SCc4ccc(F)cc4)nc3c2)cc1
-0.2	0.01	COC(CNC(=O)CN1CCN(Cc2ccccc2F)C1=O)OC
2.1	0.48	OCCC1CN(Cc2cccc(-n3cccn3)c2)CCN1Cc1ccccc1 (centres undefined)
-2.6	0.83	Cc1ccccc1-c1nc(CN2CCC(C(=O)NCc3cccs3)CC2)c(C)o1
0.14	0.16	CCSc1nnc(NC(=O)/C=C/c2ccco2)s1
-0.42	0.84	COc1cccc(NC(=O)C2C3CCC4C(CCC32)C4(Cl)Cl)c1 (centres undefined)
-0.5	0.36	CC(OC(=O)c1ccc(NC(=O)CC#N)cc1)C(=O)Nc1nc(-c2ccccc2)cs1 (centres undefined)
2	0.6	Cc1ccc2nc(Nc3nc(C)cc(-c4ccccc4)n3)[nH]c(=O)c2c1
-0.74	0.78	C=CCN=C1CC(C)(C)C(C(=O)OC)C(O)=C1C(=O)CCC (centres undefined)
0.16	1.6	CN(CC(=O)NC1CC(C)(C)NC(C)(C)C1)S(=O)(=O)c1cc(Cl)ccc1Cl
0.03	0.47	COc1ccc(N2CCN(C(=O)CSc3nnc(COc4cccc5cccnc45)o3)CC2)cc1
-0.6	1.4	O=C(NCc1cccnc1)Nc1cccc(C(F)(F)F)c1
0.12	0.03	COc1cc(C2C(S(=O)(=O)c3ccccc3)CON2C)ccc1OCc1ccc(F)cc1 (centres undefined)
2	0.03	Cc1ccccc1-c1noc(-c2cccs2)n1
0.13	0.89	CCn1c(COc2ccc(C)cc2)nnc1SCC(=O)Nc1ccc2c(c1)OCCO2
-0.33	0.99	CC1(C)CC(CC(=O)Nc2ccccc2[N+](=O)[O-])C(=O)O1 (centres undefined)
-0.64	1.7	O=C(CSCc1cc(=O)n2nc(C3CC3)sc2n1)Nc1ccccc1Cl
0.01	0.92	CN1CN=C(NS(=O)(=O)c2ccc([N+](=O)[O-])cc2)NC1
-1.7*	8*	COCCN(C(=S)Nc1cc(C)cc(C)c1)C(C)c1cccs1 (centres undefined)
1.4	0.61	CC(C)n1cnc2cc(NCc3ccccn3)ccc21
-2	0.33	O=C(CN1CCN(CC(=O)Nc2ccccc2C(F)(F)F)CC1)Nc1ccccc1F
-1.4	0.43	COc1ccc(CC(=O)Nc2ccc(S(=O)(=O)Nc3cc(C)on3)cc2)cc1OC
-0.92	0.78	Cc1cc(OCC(=O)Nc2cccnc2)c2c(C)cc(=O)oc2c1
-0.04	0.63	Cc1ccccc1NS(=O)(=O)c1ccc2c(c1)n(C)c(=O)n2C
-0.4	0.87	O=C(NCc1csc(-c2cccs2)n1)C1CC1
-0.45	1.7	O=C(CN1CCN(CC(=O)Nc2ccc(Cl)cc2)CC1)Nc1ccc(F)cc1
-1.2	0.64	COc1ccc(Cl)cc1S(=O)(=O)Nc1ccc2c(c1)n(C)c(=O)n2C
0.29	0.16	COc1ccc(CCNS(=O)(=O)c2ccc(Br)cc2)cc1OC
0.85	2.1	CS(=O)(=O)c1ccc2nc(NC(=O)c3ccc(NS(=O)(=O)c4cccc([N+](=O)[O-])c4)cc3)sc2c1
-0.31	0.77	CCn1nc(C)c(CN2CCC(n3nccc3NC(=O)Cc3ccccc3)CC2)c1C
-1.5	0.08	NC(=O)c1ccc(N2CCC(C(N)=O)CC2)c([N+](=O)[O-])c1

(next part)
KCNQ2 enhance baseline	KCNQ2 enhance	molecule
-0.45	1.6	CCOc1ccc2c(C)cc(=O)oc2c1OCC
0.5	1.2	COc1cc(C(=O)Nc2cc(-c3nc4cc(C)ccc4o3)ccc2C)cc(OC)c1OC
-1.5	0.88	Cc1cc(Br)c2[nH]c3c(c2c1)CCCC3=O
-1.9	0.78	Cc1[nH]c2ccccc2c1/C=C(\C#N)C(=O)NCC1CCCO1 (centres undefined)
-0.01	0.57	CCOc1ccc(OCCSc2nc(C)cc(=O)[nH]2)cc1
-0.78	1.3	CC(OC(=O)Cc1ccsc1)C(=O)Nc1ccc(Cl)cn1 (centres undefined)
-0.05	0.83	O=S(=O)(Nc1cccc(CCc2ccccn2)c1)c1cc(Cl)ccc1Cl
-0.8	0.72	CCOC(=O)C1(Cc2cccc(OC)c2)CCCN(C(=O)CCN2CCCO2)C1 (centres undefined)
-0.1	0.98	CCCCn1c(SCC(=O)N2CC(C)CC(C)C2)nc2cc(S(N)(=O)=O)ccc21 (centres undefined)
1.3	0.61	COc1ccc(OC)c(CCNC(=O)C(C)n2nc(C)c3c(C)n(-c4ccccc4)nc3c2=O)c1 (centres undefined)
-1.8	0.04	COc1cc(C(=O)N2CCN(C(=O)c3ccccc3)CC2)cc(OC)c1OC
0.65	0.31	Nc1ccccc1-c1nc2ccccc2c(=O)o1
1.1	0.53	COc1cccc(NC(=O)COC(=O)Cc2ccc(Br)cc2)c1
1.7	1.7	Cc1ccc(-c2nc(SC(C)C(=O)N3CCOCC3)n[nH]2)cc1 (centres undefined)
-0.05	0.74	CC(CCc1ccccc1)NC(=O)Cc1cccs1 (centres undefined)
-0.16	0.12	C/C(=N\NC(=O)c1cc(C)nc2ccccc12)c1cccs1
-0.54	1.3	c1cncc(-c2nnc3sc(C4CCCCC4)nn23)c1
-0.65	2	C=CCc1cc(/C=C2/NC(=O)N(CC(=O)OC)C2=O)cc(OC)c1O
-1.9	0.73	CCOc1ccc(N2C(=O)C(Cl)=C(N3CCOCC3)C2=O)cc1
1	0.15	CCOC(=O)C(NC(=O)c1ccccc1)(N1CCOCC1)C(F)(F)F (centres undefined)
-2.9	1.7	O=C(NC(=S)Nc1nc(-c2cccc([N+](=O)[O-])c2)cs1)c1cc(Cl)ccc1Cl
-0.37	1.6	COc1cccc(C(=O)C2CCCN(C(=O)c3ccccn3)C2)c1 (centres undefined)
-1.3	0.84	O=C(O)CC(C(=O)OC1CCCCC1)N1CCOCC1 (centres undefined)
-0.86	0.15	CCOC(=O)COc1ccsc1C(=O)OC
0.16	1.4	Nc1ncnc(N2CCc3ccccc32)c1[N+](=O)[O-]
-1.2	4.3	Cn1ncc([N+](=O)[O-])c1C(=O)N/N=C/c1cccc([N+](=O)[O-])c1
-0.75	0.34	CCCCOc1ccc(N2C(N)=NC(N)=NC23CCCCC3)cc1
-0.19	1.3	Nc1ccccc1-c1nc2ccccc2s1
-0.01	0.14	CSc1cccc(CNC(=O)CC2C(=O)NCCN2CC(C)(C)C)c1 (centres undefined)
-0.77	1.1	Cc1ccc(S(=O)(=O)N(C)C)cc1NC(=S)N1CCc2ccccc21
-0.15	1.8	Nc1cc([N+](=O)[O-])ccc1Nc1ccc(O)cc1
-0.27	1.1	Cc1ccccc1Nc1ncccc1C(=O)N1CCOCC1
-1.8	0.26	CCCCCCC(CC(=O)NCc1cccnc1)CC(=O)NCc1cccnc1
-0.91	0.19	Cn1c(=O)c2c(nc(Cl)n2Cc2ccncc2)n(C)c1=O
0.76	0.29	CCC(C)NC(=O)c1cccc(C)c1 (centres undefined)
-1.1	0.59	Cc1ccc(OCCNC(=O)c2cc(C(=O)NCCOc3ccc(C)cc3)cc([N+](=O)[O-])c2)cc1
-1.2	0.08	COc1ccc(N2CCN(C(=O)CCS(=O)(=O)c3cccc4nsnc34)CC2)cc1
-0.44	1.4	CCO[C@H]1OC(C(=O)N2CCN(C)CC2)=C[C@@H](C(C)(C)C)[C@@H]1CCCO
-1.3	0.4	CCOC(=O)NC(=O)COC(=O)c1cccc2ccccc12
0	0.81	O=C(NCCNC(=O)C(c1ccccc1)c1ccccc1)c1ccco1
-1.8	0.96	CCOc1ccc(CCNC(=O)CSc2nc3ncc(Cl)cc3[nH]2)cc1OCC
-2.4	0.23	CC(=O)c1cccc(Nc2cc(C)nc3c(C)cccc23)c1
2.9	0.43	CCCCc1nnc(NC(=O)COc2ccc3c(C)cc(=O)oc3c2)s1
-1.9	0.1	O=C(NCc1ccc2c(c1)OCO2)c1cnc2ccccn2c1=O
1.3	0.07	COc1ccc(C(=O)Nc2cc(C)on2)cc1[N+](=O)[O-]
0.08	0.38	COc1ccc(CNC(=O)c2cnc(C)cn2)c(OC)c1
-1	1	CC1CCc2c(sc(NC(=O)CSc3nc4c(c(C(F)(F)F)n3)CCc3ccccc3-4)c2C(N)=O)C1 (centres undefined)
-0.71	0.88	CC1(C)CC(OC(=O)c2ccccc2)CC(C)(C)N1
0.81	0.22	O=C(CCN1C(=O)c2ccccc2C1=O)Nc1cccc(F)c1
-0.37	0.46	CCOC(=O)C(C(=O)OCC)c1c([N+](=O)[O-])c(=O)n2c3c(cccc13)CCC2

Shown bar-delimited: entries from further up
mol | KCNQ2 enhance baseline | KCNQ2 enhance
CCO[C@H]1OC(C(=O)N2CCN(C)CC2)=C[C@@H](C(C)(C)C)[C@@H]1CCCO | -0.44 | 1.4
CCOC(=O)NC(=O)COC(=O)c1cccc2ccccc12 | -1.3 | 0.4
O=C(NCCNC(=O)C(c1ccccc1)c1ccccc1)c1ccco1 | 0 | 0.81
CCOc1ccc(CCNC(=O)CSc2nc3ncc(Cl)cc3[nH]2)cc1OCC | -1.8 | 0.96
CC(=O)c1cccc(Nc2cc(C)nc3c(C)cccc23)c1 | -2.4 | 0.23
CCCCc1nnc(NC(=O)COc2ccc3c(C)cc(=O)oc3c2)s1 | 2.9 | 0.43
O=C(NCc1ccc2c(c1)OCO2)c1cnc2ccccn2c1=O | -1.9 | 0.1
COc1ccc(C(=O)Nc2cc(C)on2)cc1[N+](=O)[O-] | 1.3 | 0.07
COc1ccc(CNC(=O)c2cnc(C)cn2)c(OC)c1 | 0.08 | 0.38
CC1CCc2c(sc(NC(=O)CSc3nc4c(c(C(F)(F)F)n3)CCc3ccccc3-4)c2C(N)=O)C1 (centres undefined) | -1 | 1
CC1(C)CC(OC(=O)c2ccccc2)CC(C)(C)N1 | -0.71 | 0.88
O=C(CCN1C(=O)c2ccccc2C1=O)Nc1cccc(F)c1 | 0.81 | 0.22
CCOC(=O)C(C(=O)OCC)c1c([N+](=O)[O-])c(=O)n2c3c(cccc13)CCC2 | -0.37 | 0.46

(more compounds)
KCNQ2 enhance baseline	KCNQ2 enhance	molecule
-2.6	2.1	CCOC(=O)N1CCC(Nc2cc(C)nc3c(-c4ccccc4OC)c(C)nn23)CC1
1.1	0.73	CCNC(=O)COC(=O)c1cc(=O)[nH]c2ccccc12
-0.61	0.28	O=S(=O)(NC1c2cccc3cccc(c23)C1N1CCN(CCO)CC1)c1ccccc1 (centres undefined)
-3.5	1.3	Cc1cnc(C(=O)OCC(=O)NCc2ccccc2)cn1
0.13	0.03	CCN(c1ccccc1)S(=O)(=O)c1ccc(N)cc1
-0.49	0.56	CC(NS(=O)(=O)c1ccc(N)cc1)C1CC2CCC1C2 (centres undefined)
0.22	1.6	Brc1ccc(-c2csc(Nc3nc(-c4ccc(Br)cc4)cs3)n2)cc1
1.6	0.89	COc1ccc(-c2cc(C(F)F)n3ncc(C(=O)NCCCN4CCCC4=O)c3n2)cc1
1.8	0.31	CN/N=C/c1ccc(C#N)cc1
-0.76	2.3	CCN(CC)C(=O)C(Oc1ccc(C)nc1[N+](=O)[O-])c1ccccc1 (centres undefined)
1.1	1.1	O=C(COC(=O)c1cncc(Br)c1)NCc1ccc(F)cc1
